# High-throughput results: PubChem BioAssay, National Center for Advancing Translational Sciences (NCATS)
# DT40 TDP1 CPT = growth inhibition of DT40 Tdp1-/-;hTDP1 cells with camptothecin (screen for TDP1 inhibitors) | chicken DT40 Tdp1-/-;hTDP1 cells + 20 nM CPT, ATP luminescence, 48 h | Potency, µM (top dose mostly 46.2 µM), for the others: at the highest dose activity change, negative = growth inhibition, actives largely listed as inhibitors | actives 12% (n = 420,000) | AID 686979; also: nearly all actives have a fitted effect of over 55% in size
#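 Chicken DT40 Tdp1-/- cells complemented with human TDP1, 400 cells/well, exposed to compounds plus 20 nM camptothecin for at least 48 h at 37 C; viability read as ATP content by CellTiter-Glo luminescence.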
# FEN1 inhibitor = blocks human flap endonuclease 1; Recombinant FEN1 flap cleavage, fluorescence, 15 min; Potency, µM (series often up to 114 µM), for inactives: top-dose activity change, negative = inhibition, hits mostly inhibitors; actives 0.35% (n = 390,000); AID 588795; also: nearly all actives have a fitted effect of over 65% in size
# Target sequence (P39748 whole entry, looked up): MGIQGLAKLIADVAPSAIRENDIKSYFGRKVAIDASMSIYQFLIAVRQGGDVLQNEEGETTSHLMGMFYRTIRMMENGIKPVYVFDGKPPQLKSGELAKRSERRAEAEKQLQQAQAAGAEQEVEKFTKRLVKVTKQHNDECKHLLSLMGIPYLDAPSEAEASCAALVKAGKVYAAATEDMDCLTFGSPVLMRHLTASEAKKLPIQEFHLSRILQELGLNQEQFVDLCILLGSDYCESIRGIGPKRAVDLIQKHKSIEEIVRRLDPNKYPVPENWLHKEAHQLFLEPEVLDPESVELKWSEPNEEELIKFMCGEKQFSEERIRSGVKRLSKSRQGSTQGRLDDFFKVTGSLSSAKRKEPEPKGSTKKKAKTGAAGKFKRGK
#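 Quantitative HTS format: each compound was titrated, incubated with 10 nM nuclease for 15 min at room temperature, then challenged with flap substrate at 50 nM final. Signal change over 15 min gave concentration–effect curves.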
# The depositor's hits bear a star; u = inconclusive; & = joins results of further samples. Calls follow the shape of the dose curve; as a rule, active = well fitted curve in the direction sought with a large enough effect; inconclusive = small, poorly fitted or top-dose-only effect, or another doubt; inactive = no such curve, though single readings can be large; an effect the other way counts as inactive or inconclusive. % is scaled to controls: 0 for no effect and ±100 for the full control effect; potency is read from the fitted curve at half-maximal effect. An excerpt, and most or all hits are left out here.
SMILES,DT40 TDP1 CPT,FEN1 inhibitor
CCN(CC)S(=O)(=O)c1ccc(N2CCCCC2)c(NC(=O)C2CCN(C(=O)c3ccc(F)cc3)CC2)c1,u,-2%
CCCNC(=O)NC(=O)CSc1nnc(-c2ccncc2)n1CC,u,-1%
CCC(C)(C)NC(=O)C(C(C)C)N(CC1CCCO1)C(=O)CNS(=O)(=O)c1ccccc1 (stereo not given),3%,-3%
COc1c(C)cc(S(=O)(=O)NCCN2CCOCC2)c(C)c1C,22%,0%
O=C(NC1CCCCC1)C1CCN(S(=O)(=O)c2cccs2)CC1,-11%,-3%
Cc1c(NC(=O)c2cnn3c(C(F)(F)F)cc(-c4ccco4)nc23)c(=O)n(-c2ccccc2)n1C,u,-7%
CCCOC(=O)C(=O)NNc1ccccc1,0%,8%
Cc1cc(Oc2ccccc2)nc(-c2ccccc2)n1,-27%,9%
CCOC(=O)N1CCN(C(=O)c2cc3c(s2)-c2ccc(Cl)cc2S(=O)(=O)C3)CC1,u,-3%
O=C(c1ccc2c(=O)n3c(nc2c1)CCCCC3)N1CCN(c2cccc(Cl)c2)CC1,18µM*,-14%
COC(=O)c1ccc(CNC(=O)N2CCN(S(=O)(=O)c3ccc(C)cc3)CC2)cc1,u,9%
CCOc1ccc(N2CC(O)=C(c3ccccc3)C2=N)cc1,3%,4%
O=c1cc2c(n[nH]1)CCCC2,-12%,7%
O=C(CN(C(=O)CCC(=O)Nc1ccccn1)c1cccc(F)c1)NCc1ccc2c(c1)OCO2,1%,2%
C/C(=N\NC(=O)Cn1c(-c2ccccn2)nc2ccccc21)c1cccc(O)c1,-24%,6%
COc1cc(C(=O)NNC(=S)NC(=O)c2ccc3c(c2)OCO3)cc(OC)c1OC,21µM*,1%
C[C@]12CCC(=O)C=C1[C@H](O)C[C@@H]1[C@@H]2[C@@H](O)C[C@@]2(C)[C@H]1CC[C@]2(O)C(=O)CO,-15%,2%
COc1cc2c(cc1OC)CN(CC(=O)NC(=O)NCc1ccco1)CC2,6%,-1%
Cc1cccc(C(=O)NC(=O)Nc2c(C)cc(C)nc2C)c1,-5%,1%
O=C(CCc1ccncc1)N1CCCC(Nc2ccc(F)c(F)c2)C1 (stereo not given),-13%,20%
COc1ccc(CCNC(=O)CCC(=O)N2CCN(S(=O)(=O)c3ccc(Cl)cc3)CC2)cc1OC,-1%,28%
COc1ccc(Cc2nc(-c3ccccn3)no2)cc1OC,4%,16%
COc1ccc(NC(=O)CS(=O)CC(=O)NCC2OCCc3ccccc32)cc1 (stereo not given),-2%,2%
NC(=O)CSc1nc2ccccc2c(=O)n1CCc1ccccc1,-15%,-4%
O=C(NCCS(=O)(=O)NCC1CCCO1)c1ccccc1 (stereo not given),6%,3%
Cc1ccc(CNC(=O)C2CCC(=O)N2Cc2ccccc2Cl)cc1 (stereo not given),1%,-8%
COc1ccc(/C=C2\Oc3cc(OCC(=O)N4CCC[C@H]4C(=O)O)ccc3C2=O)c(OC)c1OC,u,-8%
COCc1ccc(CN2CCCC(CCC(=O)NCc3cccc(OC)c3)C2)o1 (stereo not given),3%,-11%
O=C(C1CCCO1)N1CCN(C(=S)Nc2ccc(Br)cc2)CC1 (stereo not given),-2%,-2%
CCOC(=O)CSc1nnc(CNC(=O)c2cc(OCC)c(OCC)c(OCC)c2)n1C,-9%,-11%
O=C1C=C(O)C(n2cncn2)C(c2cc(F)ccc2F)C1 (stereo not given),1%,12%
CCN1C(=O)[C@@H]2[C@@H](c3ccc(SC4CCCCC4)c(OC)c3)N3CCCC[C@@]3(C(=O)OC)[C@@H]2C1=O,21µM*,-5%
CC(C)(C)c1cc(C(=O)Nc2cccnc2)cc(C(=O)Nc2cccnc2)c1,u,-11%
Cn1c(SCC(=O)C(C)(C)C)nnc1-c1ccccn1,-1%,3%
O=C(NCCCNC(=O)c1ccco1)c1ccc(Cl)c(Cl)c1,-4%,2%
Cc1cc(C(=O)Nc2ccccc2C(=O)O)c(C)o1,u,1%
CC(C)c1nnc(NC(=O)C2CCN(C(=O)c3ccco3)CC2)s1,-5%,13%
O=C(Nc1nnc(-c2cccs2)o1)C1CC1,0%,-20%
Cc1cc(C)c(S(=O)(=O)n2cnc3ccccc32)c(C)c1,-14%,-7%
CCc1cccc2c(C(=O)CSc3nnc(-c4ccoc4C)n3C)c[nH]c12,-25%,6%
CCN(CC)S(=O)(=O)c1ccc(C(=O)Nc2ccc(OCC(=O)N3CCOCC3)cc2)cc1,-22%,-1%
O=C(NNc1ccccn1)c1ccc(Cl)nc1,1%,7%
COCCCNc1ncnc2nc[nH]c12,2%,21%
Cc1ccc(N2C(=O)CC(Nc3cccc4ccccc34)C2=O)cc1 (stereo not given),7%,1%
COc1ccccc1CC(=O)Nc1ccc(-c2noc(COc3ccc(Cl)c(C)c3)n2)cc1,-6%,-1%
O=C(CC12CC3CC(CC(C3)C1)C2)NCCN1CCOCC1,2%,2%
CCC1Oc2ccc(C)cc2N(CC(=O)N2CCOCC2)C1=O (stereo not given),4%,-3%
Cc1cc(=O)[nH]c(SCC(=O)Nc2cc(S(=O)(=O)N(C)C)ccc2Cl)n1,-1%,0%
Cc1ccc(/C=C(\C#N)c2nc3ccccc3[nH]2)s1,2%,6%
CCOc1cc(C(C(=O)NCC2CCCO2)N(C(=O)Cn2nnc3ccccc32)c2ccccc2OC)ccc1O (stereo not given),6%,-1%
# Additional records follow.
SMILES,DT40 TDP1 CPT,FEN1 inhibitor
Cc1nc(-c2nc(-c3c(C(=O)NNC(=O)c4ccc(Cl)cc4)noc3C)cs2)cs1,-6%,8%
COc1cccc2c(=O)cc(C)n(CC(=O)Nc3ccc(C)c(C)c3)c12,u,1%
Cc1cc(N2CCC(C)CC2)nc2cccc(O)c12,u,-13%
S=C(NCc1ccc(Cl)cc1)NCc1ccccn1,-21%,-16%
C=CCN(CC=C)C(=O)c1ccccc1NC(=O)c1ccccc1C,-23%,10%
O=C(NCc1ccco1)C(Cc1ccccc1)N1C(=O)c2ccccc2C1=O (stereo not given),21µM*,36%
Cc1ccc(-c2nc(CSCC(=O)NCCCN3CCOCC3)c(C)o2)cc1,-1%,-1%
COc1cc(NC(=S)N2CCN(c3ccccn3)CC2)cc(OC)c1OC,-17%,1%
COc1ccc(S(=O)(=O)N(CC(=O)NCCSc2ccccn2)c2ccccc2)cc1,u,-15%
CCn1cc(C(=O)NCc2ccccc2OC)c(=O)c2ccc(C)nc21,u,-1%
O=C(COC(=O)c1ccccc1Oc1ccccc1)NC1CCS(=O)(=O)C1 (stereo not given),11%,-13%
CC(=O)N/C(=C/c1ccc(OS(=O)(=O)c2ccc(C)cc2)cc1)C(=O)NCCO,0%,-7%
Cc1ccccc1NS(=O)(=O)c1cc(C(N)=O)ccc1C,-1%,-1%
COc1ccc(-c2nc(CN3CCN(C(=O)c4ccco4)CC3)c(C)o2)c(F)c1,0%,13%
COc1ccc(S(=O)(=O)N2CCC(NC(=O)Nc3ccc(C)cc3)CC2)cc1,-19%,-3%
CC(=C/C(=O)O)/C(=C/c1ccccc1)C(=O)O,7%,-7%
CCCc1nc(N)nc2c1C(=O)CC(C)(C)C2,-16%,1%
COc1ccc(-c2nc3c(s2)CCc2onc(-c4ccc(OC)cc4)c2-3)cc1,21µM*,-14%
CCC(CC)C1C(C#N)=C(N)Oc2n[nH]c(C)c21 (stereo not given),18µM*,13%
COc1ccc(-c2[nH]ncc2C2N=C(N)Nc3nc4ccccc4n32)cc1 (stereo not given),6%,-8%
CCCOc1c(Cl)cc(C(=O)NC)cc1OC,-1%,-2%
C=CCn1c(C(CC)CC(C)(C)O)n[nH]c1=S (stereo not given),-11%,2%
NNC(=O)c1cccnc1Oc1ccccc1,-8%,16%
O=C(Cn1cnc([N+](=O)[O-])n1)N/N=C/c1cccc(Cl)c1,-14%,15%
COc1ccccc1NC(=O)Cn1nc(C)n2cccc2c1=O,-5%&-19%,15%&-6%
Cc1ccnc(NC(c2ccccc2O)c2oc(CO)cc(=O)c2O)c1 (stereo not given),-17%,17%
Fc1cccc(CSc2nc3ncccc3[nH]2)c1,-23%,-1%
COc1cccc(N(C(=O)c2ccco2)c2nc(-c3sc(NC(=O)c4ccco4)nc3C)cs2)c1,15µM*,-17%
CSCCC(NC(=O)c1ccccc1Br)C(=O)NCC1CCCCC1 (stereo not given),-8%,12%
CCOC(=O)c1c(CN(CC)CC)oc2ccc(OC)cc12,-17%,-1%
CC(C)c1ccc(NC(=O)C2CC2c2ccccc2)cc1 (stereo not given),u,-16%
CC(=O)Nc1cc(C(=O)NCCN2CCN(Cc3ccccc3)CC2)ccc1Sc1ccc(C)cc1,2%,2%
O=C(c1ccco1)N1CCN(Cc2ccc(Br)cc2)CC1,-16%,20%
O=C(NNC(=O)c1c(F)cccc1F)c1ccccc1-n1cccc1,-10%,14%
CC12CCC(=O)N1C(C(=O)OCC(=O)Nc1ccc(Cl)c(Cl)c1)CS2 (stereo not given),-19%,-10%
C[n+]1ccccc1/C=C/c1ccc(F)c(F)c1,-7%,-4%
O=C(OCC(=O)N1CCN(c2ccccc2)CC1)c1ccccn1,7%,0%
CN1CCN(C(=O)CCN2C(=O)/C(=C/c3ccccc3Cl)SC2=S)CC1,16µM*,-3%
CCOC(=O)c1ccc(NS(C)(=O)=O)cc1,12%,11%
COc1cccc(NC(=O)CNC(C)CCC(C)C)c1 (stereo not given),u,-1%

# Full records as entered above.
# COc1cccc(N(C(=O)c2ccco2)c2nc(-c3sc(NC(=O)c4ccco4)nc3C)cs2)c1 is entered as DT40 TDP1 CPT: 15µM*; FEN1 inhibitor: -17%
# Cc1cc(Oc2ccccc2)nc(-c2ccccc2)n1 is entered as DT40 TDP1 CPT: -27%; FEN1 inhibitor: 9%

# (next part)
SMILES,DT40 TDP1 CPT,FEN1 inhibitor
COc1cc2c(cc1/C=C1/NC(=O)N(CC(=O)Nc3ccccc3)C1=O)OCO2,0%,-1%
O=C(c1cccc(S(=O)(=O)N2CCOCC2)c1)N1CCCCCC1,0%,9%
Cc1ccccc1CN(C)CC(=O)NC(C)CCc1ccccc1 (stereo not given),u,-5%
COc1ccc(S(=O)(=O)Nc2c(C)nc3nc(C)[nH]n3c2=O)cc1,-1%&7%,15%&-8%
CCn1c(=O)cc(SCC(=O)N2CCOCC2)c2ccccc21,-16%,11%
CCC(=O)Nc1ccc2c(c1)nc(CN1CCN(C(C)=O)CC1)n2C,-6%,8%
C=CCn1c(C)c(C(C)=O)c(SC)nc1=S,-5%,-3%
O=C(CSc1n[nH]c(=O)n1C1CC1)c1ccc2c(c1)OCCO2,-25%,-4%
O=C(O)CCC(=O)c1ccc2c(c1)OCCO2,-13%,-1%
CN1CCN(C(=O)CSc2nc(-c3cccs3)ccc2C#N)CC1,1%,-9%

# Next section, starting with the last five of the part before.
SMILES,DT40 TDP1 CPT,FEN1 inhibitor
CCC(=O)Nc1ccc2c(c1)nc(CN1CCN(C(C)=O)CC1)n2C,-6%,8%
C=CCn1c(C)c(C(C)=O)c(SC)nc1=S,-5%,-3%
O=C(CSc1n[nH]c(=O)n1C1CC1)c1ccc2c(c1)OCCO2,-25%,-4%
O=C(O)CCC(=O)c1ccc2c(c1)OCCO2,-13%,-1%
CN1CCN(C(=O)CSc2nc(-c3cccs3)ccc2C#N)CC1,1%,-9%
CC(=O)SCC(=O)N=c1sc2cc(F)ccc2n1C,u,-11%
O=C(Cc1c(Cl)cccc1Cl)OCc1ccccn1,4%,3%
CCOc1cccc(C(=O)Nc2ccc(NC(=O)c3cc4ccccc4o3)c(OC)c2)c1,u,-5%
COC(=O)Nc1ccc(S(=O)(=O)N(CCO)CCO)cc1,-16%,0%
O=[N+]([O-])/C(C(Cl)=C(Cl)Cl)=C(/NC1CC1)Sc1ccccc1,u,2%
COC(=O)c1ccccc1NC(=O)Nc1nnc(N2CCC(C)CC2)s1,-16%&11%,15%&1%
COc1cc(CNCc2cccnc2)ccc1OCC(=O)NC(C)(C)C,-13%,-12%
FC(F)(F)c1ccccc1NC(=S)N1CCN(c2ncccn2)CC1,-1%,-1%
Cc1ccc[n+](CC(=O)Nc2ccc([N+](=O)[O-])cc2Cl)c1,-13%,2%
Cc1ccc(NC(=O)c2ccc(S(=O)(=O)N3CCOCC3)cc2)c(C)c1,4%,2%
CCOC(=O)C1CCN(Cc2nc3ccc([N+](=O)[O-])cc3c(=O)n2-c2ccc(OC)cc2OC)CC1,u,-19%
Cc1c(C#N)c(O)[nH]c(=O)c1N=Nc1ccc(Br)cc1C(=O)O,1%,u
c1ccc2c(-c3nc(-c4ccncc4)no3)cccc2c1,-27%,-16%
CCOC(=O)CN(c1ccccn1)S(=O)(=O)c1ccccc1,2%,-11%
Cc1ccc(CNC(=O)c2cc(Cl)cc(Cl)c2)n1C,-11%,-22%
CCC1(c2ccccc2)NC(=O)N(CC(=O)N(C)CC(=O)Nc2cccc(F)c2)C1=O (stereo not given),-21%,8%
Cc1c(NC(=O)c2nn3c(c2Br)NC(c2ccccc2)CC3C(F)(F)F)c(=O)n(-c2ccccc2)n1C (stereo not given),-2%,-10%
CCCOc1ccc(N2C(=O)CC(N3CCN(c4ccc([N+](=O)[O-])cc4)CC3)C2=O)cc1 (stereo not given),-2%,15%
CCN(CC)c1ccc(C(=O)OCC(=O)Nc2cccc(S(=O)(=O)NC3=NCCCCC3)c2)cc1,u,-2%
